Lassa entry inh: qHTS for Inhibitors of binding or entry into cells for Lassa Virus; Lassa virus pseudotype entry inhibition, cell reporter; control for the full effect not named in the record; Potency, µM (highest dose often 37.9 µM), for inactives: at the top dose activity change, negative = inhibition, most hits filed as inhibitors; 300,000 tested, 1.2% active; active means well fitted inhibition curve with a large enough effect; inconclusive means small, poorly fitted or top-dose-only effect, or effect the other way; inactive means flat fitted curve, though single readings scatter; tested in HEK293 cells; also: % is scaled to controls: 0 for no effect and ±100 for the full control effect; nearly all actives have a fitted effect of over 50% in size; luciferase read-out
Marburg entry inh: qHTS for inhibitors of binding or entry into cells for Marburg Virus. Marburg virus pseudotyped entry inhibition, cell reporter; control for the full effect not named in the record; about a third of the inactives were read at about 46 µM. Potency, µM (titrated, usually from 37.8 µM), without a hit: at the highest dose activity change, negative = inhibition, most hits filed as inhibitors. 300,000 tested, 1.8% active. AID 540276, 2011; active = well fitted inhibition curve with a large enough effect; inconclusive = small, poorly fitted or top-dose-only effect, or effect the other way; inactive = flat fitted curve, though single readings scatter; tested in HEK293 cells; about a fifth of its hits are not listed in these tables; also: % is scaled to controls: 0 for no effect and ±100 for the full control effect; luciferase read-out
NS1 inh: qHTS Assay for Inhibitors of Influenza NS1 Protein Function. S. cerevisiae slowed by influenza A NS1, growth recovery by OD600. 270,000 tested, 0.4% active. Potency, µM (top dose mostly 46.1 µM), for inactives: at the highest dose activity, positive = more growth; active means well fitted rising curve with a large enough effect; inconclusive means small, poorly fitted or top-dose-only effect; inactive means no such curve, though single readings can be large or run the other way; also: nearly all actives have a fitted effect of over 50% in size
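In this qHTS, NS1 from influenza A is expressed in budding yeast, where it slows growth. Cells are switched from glucose to 2% galactose medium (pH 6.0, -URA), treated with compound, and growth recovery is read at OD600.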
Cruzain inh Det: qHTS Assay for Promiscuous and Specific Inhibitors of Cruzain (with detergent). purified cruzain, Z-FR-AMC fluorescence, 0.01% Triton. Potency, µM, for inactives: max response, negative = inhibition, usual class: inhibitors. 200,000 tested, 0.43% active. AID 1478, 2009. Cruzipain (Trypanosoma cruzi), P25779;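 also: plate controls were neutral wells for no effect and buffer without enzyme for full effect; nearly all actives have a fitted effect of over 40% in size; top concentration of the series not given in the record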
Target sequence (P25779 123-467 limits assumed): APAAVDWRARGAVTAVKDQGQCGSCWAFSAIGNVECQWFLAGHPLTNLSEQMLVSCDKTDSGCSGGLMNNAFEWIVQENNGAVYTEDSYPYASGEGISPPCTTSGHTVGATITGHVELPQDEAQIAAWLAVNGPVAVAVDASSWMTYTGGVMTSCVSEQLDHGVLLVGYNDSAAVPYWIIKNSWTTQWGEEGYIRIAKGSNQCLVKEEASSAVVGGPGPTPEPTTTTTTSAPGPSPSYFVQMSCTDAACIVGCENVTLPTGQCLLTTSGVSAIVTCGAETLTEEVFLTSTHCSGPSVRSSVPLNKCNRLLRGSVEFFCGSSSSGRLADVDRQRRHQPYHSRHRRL
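Purified cruzain (1.5 nM final) was preincubated with compounds for 15 min at room temperature in 100 mM sodium acetate pH 5.5, 5 mM DTT, 0.01% Triton X-100. Reaction started with 2 uM Z-FR-AMC; AMC fluorescence change over 60 s gave activity.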
Cruzain noTriton: qHTS Assay for Promiscuous and Specific Inhibitors of Cruzain (without detergent). purified cruzain, Z-FR-AMC fluorescence, no detergent. 200,000 tested, 2.3% active. Potency, µM, for inactives: max response, negative = inhibition, hits mostly inhibitors. AID 1476, 2009;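 also: plate controls were enzyme without inhibitor for no effect and buffer without enzyme for full effect; nearly all actives have a fitted effect of over 40% in size; top concentration of the series not given in the record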
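Purified cruzain at 1.5 nM, pre-incubated 15 min with compound at room temperature in 100 mM sodium acetate pH 5.5, 5 mM DTT, 0.00005% Triton X-100. Reaction started with 2 uM Z-FR-AMC; AMC fluorescence increase over 60 s gives rate.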
SARS PLP yeast: qHTS of Yeast-based Assay for SARS-CoV PLP | S. cerevisiae expressing SARS-CoV PLpro, growth rescue; control for the full effect not named in the record | Potency, µM (highest dose often 32.9 µM), inactives show top-dose activity, positive = growth rescue | 330,000 tested, 0.19% active; active means well fitted rising curve with a large enough effect; inconclusive means small, poorly fitted or top-dose-only effect; inactive means no such curve, though single readings can be large or run the other way; also: 0% is about no effect; nearly all actives have a fitted effect of over 55% in size; growth read by luminescence after 48 h
2A StopGo: High Throughput Screening for Foot and Mouth Disease Virus Antivirals; human cells with a luciferase reporter of 2A StopGo recoding; control for the full effect not named in the record; Potency, µM (doses to about 57.9 µM), for the others: top-dose signal change, negative = less light; 410,000 tested, 1.2% active; active = well fitted falling curve with a large enough effect; inconclusive = small, poorly fitted or top-dose-only effect; inactive = no such curve, though single readings can be large or run the other way; tested in HEK293T cells; also: % is scaled to controls: 0 for no effect and ±100 for the full control effect; nearly all actives have a fitted effect of over 45% in size; luciferase light after 4 h
RE007 growth inh: qHTS Assay for Inhibitors of the HIV-1 protein Vpr; S. pombe RE007 Vpr strain, BacTiter-Glo ATP luminescence, 24 h; control for the full effect not named in the record; Potency, µM (series often up to 92.2 µM), for the others: top-dose activity change, negative = less growth; 360,000 tested, 0.21% active; AID 651644, 2012; active = well fitted falling curve with a large enough effect; inconclusive = small, poorly fitted or top-dose-only effect; inactive = no such curve, though single readings can be large or run the other way;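 also: % is scaled to controls: 0 for no effect and ±100 for the full control effect; nearly all actives have a fitted effect of over 50% in size; the assay follows cell death caused by Vpr and the record does not say whether a fall means rescue or toxicity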
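Fission yeast RE007 carrying one integrated HIV-1 vpr copy, seeded at OD 0.01 in PMG+AL medium with 23 nL pinned compound. Grown 24 h at 30 degrees; viability read by BacTiter-Glo luminescence after 5 min.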
Starred values were filed as active, the others as inactive; ? = inconclusive; · = not tested or not shown; [ ] = another dose, or the depositor's remark. Unless noted, calls follow the shape of the dose curve; as a rule, active = well fitted curve in the direction sought with a large enough effect; inconclusive = small, poorly fitted or top-dose-only effect, or another doubt; inactive = no such curve, though single readings can be large; an effect the other way counts as inactive or inconclusive. Potency is read from the fitted curve at half-maximal effect.

Each structure is followed by: Lassa entry inh	Marburg entry inh	NS1 inh	Cruzain inh Det	Cruzain noTriton	SARS PLP yeast	2A StopGo	RE007 growth inh
COc1cc2c(cc1NC(=O)COC(=O)/C=C/c1ccccc1)oc1ccccc12
 : -14%	?	3%	-1.2%	?	?	-30%	-1%
Cc1cc(NC(=O)CSc2nc3c(c(=O)n2-c2ccccc2)SC(C)C3)no1 (centres undefined)
 : 4%	-3%	-8%	-4.0%	-7%	4%	-26%	-13%
CCOc1ccc(NC(=S)NC23CC4CC(CC(C4)C2)C3)cc1
 : ·	·	9%	·	·	-4%	-2%	-10%
O=C(CC1SC(N2CCCCC2)=NC1=O)Nc1cccc(C(=O)Nc2ncccc2O)c1 (centres undefined)
 : 10%	8%[46.1 µM]	·	·	·	?	15%	10%
CCOc1ccc(CNC(=O)CCC(=O)n2ncc3ccc(Cl)cc32)cc1
 : ·	·	-21%	·	·	-1%	-21%	-4%
CCS(=O)(=O)N1CCC(C(=O)Oc2ccc(C)c(C)c2)CC1
 : ·	·	8%	·	·	3%	5%	2%
COc1ccc(N2C(=O)C3ON(C4SC(=S)N(C)C4(C)C)C(c4ccc([N+](=O)[O-])cc4)C3C2=O)cc1 (centres undefined)
 : 12%	15%	6%	4.9%	7%	-3%	-21%	9%
CC1CCN(C(=O)c2ccc3c(c2)OCCO3)CC1
 : ?	?	4%	1.7%	-2%	2%	74%[activator]	52%
Cc1cccc(NC(=O)C2CCN(S(=O)(=O)c3ccc4c(c3)NC(=O)CO4)CC2)c1C
 : 0%[46.1 µM]	-20%[46.1 µM]	-5%	·	·	-1%	-13%	10%
COc1cccc(CNC(=O)CCNC(=O)Cn2ccc3ccccc3c2=O)c1
 : 7%	4%	19%	7.8%	-10%	-1%	0%	7%
CC1C(=O)OC(c2ccc(Br)cc2)C(C)(C)C1=O (centres undefined)
 : ·	·	-1%	·	·	1%	-11%	12%
COc1ccc(/C=N/S(=O)(=O)c2cccs2)cc1
 : -6%	-15%	5%	0.1%	-2%	6%	-8%	4%[3.69 µM]
COC(=O)CNC(=O)C1CCC(CNS(=O)(=O)c2cccc3nsnc23)CC1 (centres undefined)
 : 19%[46.1 µM]	?	-2%	·	·	-5%	-5%	11%
COc1ccc(S(=O)(=O)N2CCN(C(=O)COc3ccccc3)CC2)cc1
 : ·	·	-2%	·	·	0%	-1%	1%
CC(C)(C)NC(=O)CCN(/N=C/c1ccccc1F)C1=NS(=O)(=O)c2ccccc21
 : -9%[46.1 µM]	?	7%	·	·	6%	-22%	-13%
O=C(CC(c1cccs1)N1Cc2ccccc2C1=O)Nc1ccc(F)c(Cl)c1 (centres undefined)
 : -10%[46.1 µM]	·	·	-1.6%	-2%	·	-6%	·
CC(C)Oc1ccc(CNC(=O)C2CCN(c3nc4ccccc4nc3C(F)(F)F)CC2)cc1
 : ?	·	·	3.5%	-2%	·	?	·
Cc1c(Cl)cccc1NC(=O)CNCc1ccccc1F
 : 6%[46.1 µM]	-26%[46.1 µM]	·	·	·	0%	22%	63%
CC(C)CNC(=O)[C@H](Cc1ccccc1)NC(=O)c1ccco1
 : 0%	-14%	-5%	0.1%	17%	-7%	9%	-9%
CC(C)C(=O)N1CCC(CN=CC2=C(O)CC(C)(C)CC2=O)CC1
 : 6%	13%	-1%	-0.9%	4%	23%	3%	-2%
CCOc1ccc(NC(=O)CC2C(=O)N(CC)C(=S)N2CCNC(C)=O)cc1 (centres undefined)
 : 0%	12%	-9%	-1.7%	15%	17%	2%	-6%
CCc1ccc(-c2csc3ncn(Cc4ccc(C(=O)O)cc4)c(=O)c23)cc1
 : 0%[46.1 µM]	?	11%	·	·	0%	-19%	2%
COc1cc(NS(=O)(=O)c2ccc3c(c2)C(C)(C)C(=O)N3C)cc(OC)c1
 : ·	·	8%	·	·	-2%	75%[activator]	9%
O=S(=O)(NC(=NCc1ccccc1)c1ccccc1)c1ccccc1
 : -16%[46.1 µM]	2%[46.1 µM]	3%	·	·	12%	0%	-9%
CCCN(CCC)c1ccc(/C=N/NC(=O)CN2CCOCC2)cc1
 : -18%[46.1 µM]	3%[46.1 µM]	-4%	·	·	-1%	-13%	-7%
Cc1cc2ncn(S(=O)(=O)N(C)C)c2cc1C
 : -2%	-8%	-13%	-1.1%	-4%	8%	-5%	-12%
O=C(CCC(=O)Nc1ccccc1)N/N=C/c1ccccc1F
 : 1%	?	·	·	·	0%	54%[activator]	10%
O=C(C1=COCCO1)N(Cc1nnc(-c2ccc(Cl)cc2)o1)C1CC1
 : 3%	20%[46.1 µM]	·	·	·	0%	11%	-4%
Cc1cc2nc3c(=O)n(C4CCCCC4)c(=O)[nH]c3nc2cc1N
 : 0%	-6%[46.1 µM]	7.9µM*	-5.7%	8%	18%	56%[activator]	0%
Cc1ccc(-c2cn(S(=O)(=O)c3cccc4nsnc34)nc2N)cc1
 : 0%	?	-45%	-6.5%	?	·	?	4%
CC1CC(OC(=O)c2ccccc2)CC(C)N1C (centres undefined)
 : 0%	-1%	0%	1.6%	3%	-13%	-2%	7%
CCOc1ccc(S(=O)(=O)NNC(=O)c2cc3ccccc3o2)cc1
 : 19%	13%	3%	-2.2%	0%	-1%	15%	-7%
COc1ccc(CNc2cc(C)nc3ncnn23)c(OC)c1
 : -19%	?	-3%	4.9%	-7%	7%	?	20%
CCc1nc(SCC(=O)Nc2sc(C)c(C)c2C(=O)OC)c2ccccc2n1
 : ·	0%	-6%	0.8%	0%	-3%	·	·
Clc1ccc(-c2nnc(-c3ccccc3)c(-c3ccccc3)n2)cc1
 : -17%	?	3%	·	·	-1%	-23%	-16%
O=C(c1ccc(F)cc1)N1CCc2c([nH]c3ccccc23)C1c1ccc(Cl)cc1 (centres undefined)
 : ?	·	·	3.2%	?	·	-21%	·
COc1ccc(CC(=O)NCCc2csc3nc(-c4ccccc4F)nn23)cc1
 : 5%[46.1 µM]	·	·	-0.1%	1%	·	9%	·
O=c1c2ccccc2c2ccccc2c(=O)n1Cc1cccnc1
 : -29%	26%	9%	2.3%	-5%	5%	·	4%
CN1CCC(CN)(N2CCN(c3ccccc3)CC2)CC1
 : ·	·	6%	·	·	-4%	-16%	12%
O=c1c2ccccc2nc(-c2cccs2)n1-c1cnccn1
 : 6%	13%	-1%	-1.4%	2%	9%	-15%	5%
CCSc1nc(O)c(CC)c(=O)n1C(C)CC (centres undefined)
 : 28%[14.3 µM]	-1%	-17%	-2.2%	-9%	-7%	-23%	-1%
Oc1ccc(/C=N/Nc2nccnc2Cl)cc1
 : ?	?	-1%	-5.8%	-7%	-12%	-8%	?
N#Cc1ccccc1OCC(=O)C1CC1
 : -18%	10%[46.1 µM]	-6%	·	·	1%	16%	-1%
CC(=O)N1N=C(c2ccco2)CC1c1cc2cc(C)ccc2nc1Cl (centres undefined)
 : -12%	-6%[46.1 µM]	0%	·	·	0%	-4%	-5%
Nn1cnnc1N/N=C/c1ccc(Cl)cc1Cl
 : ?	?	-46%	·	·	-4%	20%	-4%
NS(=O)(=O)c1ccc(NC(=S)N2CCN(C(=O)C3CCCO3)CC2)cc1 (centres undefined)
 : ·	·	-3%	·	·	-3%	-18%	1%
COc1ccccc1-c1c(NC(=O)C(C)C)n(C)c2ccccc2c1=O
 : 19%	21%	-2%	·	·	0%	-9%	15%
CCOc1ccc(OCC)c(NC(=O)c2nnn(Cc3cc(Br)ccc3OC)c2N)c1
 : -10%[46.1 µM]	?	·	0.6%	-2%	·	-23%	·
CCc1n[nH]c(=S)n1N=C1CCC(C)CC1 (centres undefined)
 : ·	·	4%	·	·	0%	-2%	-1%
CCOC(=O)Cc1cc(=O)n2[nH]c(C)cc2n1
 : 11%	6%	6%	2.5%	-4%	7%	-13%	-4%

Next part:
Each structure is followed by: Lassa entry inh	Marburg entry inh	NS1 inh	Cruzain inh Det	Cruzain noTriton	SARS PLP yeast	2A StopGo	RE007 growth inh
COCCN=C1NC(=O)C(CC(=O)Nc2cccc(Cl)c2C)S1 (centres undefined)
 : -21%	-6%[46.1 µM]	1%	·	·	0%	-10%	-14%
COc1ccc(/C(O)=C2/C(=O)C(=O)N(c3ccccn3)C2c2ccc(F)cc2)cc1 (centres undefined)
 : ·	·	2%	·	·	-1%	42%	-10%
O=C(c1csc2ccccc12)N1CCCCCC1
 : -5%	9%	-5%	0.6%	-2%	1%	11%	-20%
Cc1ccc(-c2cc(C(=O)N3N=C(C(F)F)CC3(O)C(F)F)c3ccccc3n2)cc1C (centres undefined)
 : 5%	-26%	-49%	-6.8%	-2%	-38%	16%	-20%
COC(=O)C1CCN(S(=O)(=O)Cc2ccccc2Cl)CC1
 : ·	·	2%	·	·	-14%	-18%	0%
O=C(c1ccccc1Cl)N(Cc1ccccc1F)N1C(=O)CCCC1=O
 : -11%	13%[46.1 µM]	·	·	·	0%	6%	9%
Cc1ccc(-c2nc3ccc(Cl)cc3n2OC(C)C(=O)O)cc1 (centres undefined)
 : ·	·	4%	·	·	0%	80%[activator]	-5%
c1ccc2c(c1)Cn1nnnc1-2
 : 8%	-1%	10%	-1.1%	11%	1%	22%	19%
OCCCC1CCCN(Cc2cn[nH]c2-c2ccc(F)cc2F)C1 (centres undefined)
 : ·	·	3%	·	·	0%	-23%	0%
CSc1nnc2c3c4c(sc3nc(-n3nc(C)cc3C)n12)COC(C)(C)C4
 : 3%	-16%	2%	1.5%	0%	8%	-4%	-14%
COc1ccc(C(=O)NC2CCCc3ccccc32)c(OC)c1OC (centres undefined)
 : ·	?	-7%	·	·	-2%	18%	?
COc1ccc(Nc2ncnc3c2c(C)c(C)n3CCCN(C)C)cc1
 : 1%[46.1 µM]	?	-2%	·	·	1%	9%	-14%
CCn1c(=O)c2ccccc2n(Cc2ccc([N+](=O)[O-])cc2)c1=O
 : ·	·	-12%	·	·	4%	-28%	17%
Cc1ccc(C)c(C(=O)CN2C(=O)c3ccccc3S2(=O)=O)c1
 : ?	?	1%	-0.6%	-16%	4%	36%[activator]	-14%

From PubChem
